Rango complex inh = inhibitors of Rango-importin beta complex formation. Q14974. Rango CFP/YFP FRET sensor + importin beta, 45 min. Potency, µM (titrated, usually from 92.2 µM), for the others: at the top dose inhibition of complex formation. 0.031% of 340,000 active. AID 540263; active = rising FRET ratio curve, often small or poorly fitted; inconclusive = mostly compound fluorescence or quenching in the first reads; inactive = flat curves in all reads;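 further: potency means the concentration at half of the fitted maximal effect; 0% = DMSO wells and 100% = buffer wells lacking importin beta; nearly all actives have a fitted effect of over 15% in size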
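Inhibition scored from the CFP 486 nm/YFP 530 nm FRET ratio 45 min after adding 0.125 microM importin beta to 50 nM Rango biosensor preincubated 5 min with compound (room temperature, PBS with DTT, Tween-20, BSA). No-importin wells as positive control.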
Rango dissoc inh = inhibition of RanGTP-driven Rango-importin beta dissociation; O95149+P62826; Biochemical FRET Rango-importin beta, RanGTP-induced dissociation; Potency, µM (titrated, usually from 46.1 µM), for the others: at the highest dose activity change, negative = inhibition; 0.071% of 340,000 active; active means falling FRET ratio curve, often poorly fitted, with flat reads before Ran was added; inconclusive means other falling curves, or compound fluorescence or quenching; inactive means flat or rising ratio curve;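 further: potency means the concentration at half of the fitted maximal effect; % of control where 0% means no effect; nearly all actives have a fitted effect of over 45% in size; -100% = wells without RanGTP and RCC1; the record marks most hits as doubtful in a second field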
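Compounds preincubate 5 min with complex of recombinant Rango and importin beta in PBS with 1 mM DTT. Ran (0.6 uM) loaded with 2 mM GTP plus 0.2 uM RCC1 starts dissociation; FRET is recorded 45 min later.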
GLA inh pH 4.5 = inhibitors of human alpha-galactosidase A at pH 4.5; AID 1467; 230,000 tested, under 10 active; P06280; purified enzyme, 4-MU-alpha-Gal fluorescence, pH 4.5; activity change, negative = inhibition, % at 105 µM; inconclusive = small, poorly fitted or top-dose-only inhibition, or a rising curve; inactive = flat fitted curve, though single readings scatter; no compound was filed as active;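 further: 0% = full activity with enzyme and -100% = basal without enzyme; dose as in the result columns while the protocol names 77 µM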
Target sequence (P06280 whole entry, looked up): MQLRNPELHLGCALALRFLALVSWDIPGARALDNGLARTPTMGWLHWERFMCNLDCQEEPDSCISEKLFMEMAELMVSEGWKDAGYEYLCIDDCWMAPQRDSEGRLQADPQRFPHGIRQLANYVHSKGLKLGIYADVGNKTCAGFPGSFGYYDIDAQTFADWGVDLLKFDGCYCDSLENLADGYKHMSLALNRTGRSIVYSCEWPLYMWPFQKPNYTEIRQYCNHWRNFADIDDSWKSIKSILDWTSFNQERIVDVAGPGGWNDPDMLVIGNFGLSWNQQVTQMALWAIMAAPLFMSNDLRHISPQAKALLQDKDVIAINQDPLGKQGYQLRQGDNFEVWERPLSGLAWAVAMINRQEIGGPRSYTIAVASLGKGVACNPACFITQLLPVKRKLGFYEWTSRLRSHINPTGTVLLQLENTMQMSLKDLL
miR-21 reporter = miR-21 reporter, rising signal; HeLa miR-21 FLuc reporter, luciferase, 48 h; Potency, µM (titrated, usually from 38.3 µM), for inactives: at the top dose reporter change, positive = more light; 340,000 tested, under 10 active; active = well fitted rising curve with a large enough effect; inconclusive = small, poorly fitted or top-dose-only effect; inactive = no such curve, though single readings can be large or run the other way;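 further: % of control where 0% means no effect; miR-21 action dims this reporter so a rising signal means less miR-21 action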
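HeLa miR-21-FLuc reporter line, endogenous miR-21; 2000 cells/well in DMEM/10% FBS; compound titration up to ~40uM final, 48 h, 37 degree Celsius; luciferase detection reagent, 15 min lysis, CCD luminescence.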
Active calls of the source: *. This is a subset, so the mix of outcomes need not match the whole.

How did O=C(c1ccc(S(=O)(=O)N2CCOCC2)cc1)N(c1ccccn1)C1CCCCC1 do in these assays?
Rango complex inh: 0.1%; Rango dissoc inh: 11.6%; GLA inh pH 4.5: -3.5; miR-21 reporter: 2.0%

Results for Cc1nc(Nc2ccncc2)c2oc3ccccc3c2n1 ?
Rango complex inh: -0.6%; Rango dissoc inh: 0.4%; GLA inh pH 4.5: -5.1; miR-21 reporter: 23.1%

Results for COc1ccccc1CCn1cc(C#N)c(=O)[nH]c1=O ?
Rango complex inh: -0.5%; Rango dissoc inh: 5.7%; GLA inh pH 4.5: -0.6; miR-21 reporter: -17.6%

How did COc1ccc(/C=N/N2CCN(c3ccncc3S(=O)(=O)N3CCCCC3)CC2)cc1 do in these assays?
Rango complex inh: -0.4%; Rango dissoc inh: -1.1%; GLA inh pH 4.5: -0.7; miR-21 reporter: -3.6%

How did O=C(O)[C@@H]1CCCC[C@@H]1C(=O)N1CCc2ccccc2C1CN1C(=O)c2ccccc2C1=O (stereo not given in full) do in these assays?
Rango complex inh: -0.1%; Rango dissoc inh: 7.2%; GLA inh pH 4.5: -5.0; miR-21 reporter: 18.1%

How did CC1CCCCN1c1ncnc2ccccc12 (stereo not given) do in these assays?
Rango complex inh: 0.5%; Rango dissoc inh: -3.6%; GLA inh pH 4.5: 1.2; miR-21 reporter: 15.0%

Results for O=C(NCc1nc2ccccc2[nH]1)C1=C[C@@H](C2CCCCC2)C[C@@H](OCCCCO)O1 ?
Rango complex inh: 0.0%; Rango dissoc inh: 7.0%; GLA inh pH 4.5: inconclusive; miR-21 reporter: -0.4%

What do the screens show for `NC(=O)CC(NC(=O)Cc1ccc(Br)cc1)c1ccc(N2CCC(N3CCCC3)CC2)c([N+](=O)[O-])c1` (stereo not given)?
Rango complex inh: -1.7%; Rango dissoc inh: -11.6%; miR-21 reporter: -4.9%

How did O=C(Nc1ccc(C(=O)NCCCN2CCCCC2)cc1)C1=CSCCO1 do in these assays?
Rango complex inh: -1.3%; Rango dissoc inh: -6.9%; miR-21 reporter: -8.1%

Results for COc1ccc(C(=O)c2oc3ccccc3c2N)cc1 ?
Rango complex inh: inconclusive; Rango dissoc inh: inconclusive; GLA inh pH 4.5: -24.2; miR-21 reporter: -49.1%

What do the screens show for `COc1ccccc1NC(=O)CCC(=O)N/N=C(/C)c1ccc(C)cc1`?
Rango complex inh: -4.3%; Rango dissoc inh: -2.1%; GLA inh pH 4.5: 0.3; miR-21 reporter: -7.4%

Results for Nc1cc(N2CCCCC2)c(Cl)cc1[N+](=O)[O-] ?
Rango complex inh: -2.3%; Rango dissoc inh: 0.0%; GLA inh pH 4.5: -5.6; miR-21 reporter: 10.8%

Results for COC(=O)N/N=C/c1cc(C)n(-c2ccccc2)c1C ?
Rango complex inh: -2.5%; Rango dissoc inh: -7.0%; GLA inh pH 4.5: 2.4; miR-21 reporter: -55.7%

Results for N#C/C(=C\c1ccccc1)c1ccccn1 ?
Rango complex inh: 0.1%; Rango dissoc inh: -3.5%; GLA inh pH 4.5: 2.0; miR-21 reporter: -51.4%

How did Nc1nnc(CCN2C(=O)CSC2=O)s1 do in these assays?
Rango complex inh: 0.3%; Rango dissoc inh: -6.2%; GLA inh pH 4.5: 1.0; miR-21 reporter: 0.3%

Results for S=C1NC2=C(CCCC2=C2SCCCS2)C(c2ccccc2)N1 (stereo not given) ?
Rango complex inh: -2.3%; Rango dissoc inh: inconclusive; GLA inh pH 4.5: -3.3; miR-21 reporter: -3.5%

What do the screens show for `CCCC(c1nnnn1Cc1ccc(OC)cc1)N1CCN(C(=O)c2ccco2)CC1` (stereo not given)?
Rango complex inh: -2.1%; Rango dissoc inh: 3.1%; miR-21 reporter: -4.8%

How did Cn1c(=O)c(C(=O)NCc2ccc(F)cc2)c(O)c2ccccc21 do in these assays?
Rango complex inh: 0.0%; Rango dissoc inh: -12.2%; miR-21 reporter: -0.6%

What do the screens show for `COCCn1nnnc1C(c1ccc(C(F)(F)F)cc1)N1CCOCC1` (stereo not given)?
Rango complex inh: -3.9%; Rango dissoc inh: -1.8%; GLA inh pH 4.5: -6.9; miR-21 reporter: -5.3%

What do the screens show for `O=C(O)CCC1(c2ccccc2)NC(=O)NC1=O` (stereo not given)?
Rango complex inh: -1.0%; Rango dissoc inh: -1.5%; GLA inh pH 4.5: 2.6; miR-21 reporter: 1.4%

Results for Cc1c(Cl)c([N+](=O)[O-])nn1CCCC(=O)Nc1cc(Oc2ccccc2)cc([N+](=O)[O-])c1 ?
Rango complex inh: -2.7%; Rango dissoc inh: 9.7%; GLA inh pH 4.5: -4.0; miR-21 reporter: -5.3%

Results for COc1ccccc1CNS(=O)(=O)CCNCCc1ccccc1 ?
Rango complex inh: 1.6%; Rango dissoc inh: -9.4%

What do the screens show for `C#CCOCCOCCOCCNc1nc(N2CCN(C(=O)[C@H](CCC(=O)O)n3cc(C(N)CO)nn3)CC2)nc(N2CCN(C(=O)[C@H](CCC(=O)O)n3cc(C(N)CC(C)C)nn3)CC2)n1` (stereo not given in full)?
GLA inh pH 4.5: 2.4; miR-21 reporter: 4.3%

How did CSc1ccc(C#N)cc1NC(=O)c1ccc(Cl)nc1 do in these assays?
Rango complex inh: 0.2%; Rango dissoc inh: 19.6%; GLA inh pH 4.5: 5.8; miR-21 reporter: 0.0%

Quoted at random: 3 records from the list
How did CSc1ccc(C#N)cc1NC(=O)c1ccc(Cl)nc1 do in these assays?
Rango complex inh: 0.2%; Rango dissoc inh: 19.6%; GLA inh pH 4.5: 5.8; miR-21 reporter: 0.0%

How did Nc1nnc(CCN2C(=O)CSC2=O)s1 do in these assays?
Rango complex inh: 0.3%; Rango dissoc inh: -6.2%; GLA inh pH 4.5: 1.0; miR-21 reporter: 0.3%

What do the screens show for `COCCn1nnnc1C(c1ccc(C(F)(F)F)cc1)N1CCOCC1` (stereo not given)?
Rango complex inh: -3.9%; Rango dissoc inh: -1.8%; GLA inh pH 4.5: -6.9; miR-21 reporter: -5.3%

The list goes on:
What do the screens show for `CC(C)NCCCOc1ccc(C(C)(C)c2ccccc2)cc1`?
Rango complex inh: 2.3%; Rango dissoc inh: 5.0%; GLA inh pH 4.5: 4.7; miR-21 reporter: -5.3%

How did O=C(COC(=O)c1ccc2c(c1)OCO2)Nc1ccccc1Cl do in these assays?
Rango complex inh: 0.3%; Rango dissoc inh: -4.5%

Results for Cc1ccc(/C=C/C(=O)c2cc(Br)ccc2OC(=O)c2ccco2)cc1 ?
Rango complex inh: -4.0%; Rango dissoc inh: -28.8%; GLA inh pH 4.5: -8.0; miR-21 reporter: 9.7%

How did O=C(Nc1ccc(C(=O)Oc2ccccc2)c(O)c1)c1ccco1 do in these assays?
Rango complex inh: -6.7%; Rango dissoc inh: 5.8%; GLA inh pH 4.5: -5.4; miR-21 reporter: -39.3%

Results for N#CC(c1ccc(O)cc1)N1CCOCC1 (stereo not given) ?
Rango complex inh: -2.1%; Rango dissoc inh: 9.1%; GLA inh pH 4.5: 3.8; miR-21 reporter: -1.5%

Results for CCN(CC)CCN1C(=O)C(=O)/C(=C(/O)c2cccc(OC)c2)C1c1ccccn1 (stereo not given) ?
Rango complex inh: -1.2%; Rango dissoc inh: -12.7%; GLA inh pH 4.5: -8.1; miR-21 reporter: -23.5%

Results for CCOc1cc(C2C(C#N)=C(N)OC3=C2C(=O)CC(C)(C)C3)cc([N+](=O)[O-])c1O (stereo not given) ?
Rango complex inh: -0.5%; Rango dissoc inh: -3.4%; GLA inh pH 4.5: 0.2; miR-21 reporter: 1.0%

What do the screens show for `CCCOc1ccc(Cc2c(Cl)nc(SC)nc2N(C)C)cc1`?
Rango complex inh: -0.2%; Rango dissoc inh: -6.5%; GLA inh pH 4.5: 4.2; miR-21 reporter: 14.1%

Results for O=C(c1ccc2c(=O)n3c(nc2c1)CCCCC3)N1CCN(Cc2ccccc2)CC1 ?
Rango complex inh: 2.1%; Rango dissoc inh: 3.8%; GLA inh pH 4.5: 3.2; miR-21 reporter: 0.7%

What do the screens show for `Cc1c(NC(=O)CN2C(=O)c3ccc([N+](=O)[O-])cc3C2=O)c(=O)n(-c2ccccc2)n1C`?
Rango complex inh: 2.5%; Rango dissoc inh: -6.0%; GLA inh pH 4.5: 8.5; miR-21 reporter: -0.3%

Results for CCN(CC)C(=O)c1sc2nc(-c3cccs3)cc(-c3cccs3)c2c1N ?
Rango complex inh: inconclusive; Rango dissoc inh: -12.9%; GLA inh pH 4.5: -1.3; miR-21 reporter: 0.6%

What do the screens show for `COc1ccccc1CCC(=O)N1CCN(C(=O)c2ccccc2)CC1`?
Rango complex inh: 0.4%; Rango dissoc inh: -3.6%; miR-21 reporter: 0.8%

How did OC(CON=C1c2ccccc2-c2ccccc21)CN1CCNCC1 (stereo not given) do in these assays?
Rango complex inh: 0.2%; Rango dissoc inh: 7.3%; GLA inh pH 4.5: -8.4; miR-21 reporter: 19.0%

What do the screens show for `O=C(O)CC1(CC(=O)Nc2ccc(Br)cc2)CCCCC1`?
Rango complex inh: 3.5%; Rango dissoc inh: inconclusive; GLA inh pH 4.5: -4.2; miR-21 reporter: 0.8%

What do the screens show for `COc1ccccc1CN1CC(C(=O)N(C)CCc2nc3ccc(F)cc3[nH]2)CCC1=O` (stereo not given)?
Rango complex inh: 5.3%; Rango dissoc inh: -3.0%; miR-21 reporter: -1.9%

Results for O=C(Nc1ccc(Cl)cc1Cl)NC1CCN(S(=O)(=O)c2ccc(F)cc2)CC1 ?
Rango complex inh: -0.3%; Rango dissoc inh: 9.5%; GLA inh pH 4.5: -8.1; miR-21 reporter: -2.0%

How did O=C(Oc1ccccc1)c1ccc2nsnc2c1 do in these assays?
Rango complex inh: -2.2%; Rango dissoc inh: 9.8%; GLA inh pH 4.5: -1.0; miR-21 reporter: -11.0%

Results for Cc1ccc(C(=O)NCCN2CCOCC2)cc1S(=O)(=O)N1CCCCC1 ?
Rango complex inh: -3.6%; Rango dissoc inh: -11.1%; miR-21 reporter: -1.6%

How did COC(=O)CNC(=O)CNC(=O)c1nn(-c2ccc(OC)c(Cl)c2)c(=O)c2ccccc12 do in these assays?
Rango complex inh: -1.3%; Rango dissoc inh: 7.0%; GLA inh pH 4.5: -27.3; miR-21 reporter: -4.7%

How did COC(=O)c1ccc(COC(=O)C2CCN(S(=O)(=O)c3ccc(C)c(C)c3)CC2)o1 do in these assays?
Rango complex inh: 3.4%; Rango dissoc inh: 0.3%

What do the screens show for `NNc1ncnc2scc(-c3ccc(Cl)cc3)c12`?
Rango complex inh: 3.2%; Rango dissoc inh: 8.3%; GLA inh pH 4.5: -13.6; miR-21 reporter: inconclusive

What do the screens show for `O=C(CC1C(=O)NCCN1C(=O)Nc1ccc(F)cc1)Nc1cc(Cl)ccc1Cl` (stereo not given)?
Rango complex inh: 5.7%; Rango dissoc inh: 24.1%; GLA inh pH 4.5: -3.5; miR-21 reporter: -2.6%

What do the screens show for `CCCn1c(N)c(C(c2ccc(OC)cc2)N2CCN(c3ccccc3)CC2)c(=O)[nH]c1=O` (stereo not given)?
Rango complex inh: 1.5%; Rango dissoc inh: 17.8%; GLA inh pH 4.5: 13.0; miR-21 reporter: -0.5%

How did CCOC(=O)C(Oc1ccc2c(-c3ccccc3)cc(=O)oc2c1C)c1ccccc1 (stereo not given) do in these assays?
Rango complex inh: 1.8%; Rango dissoc inh: -13.3%; GLA inh pH 4.5: -7.8; miR-21 reporter: 0.6%

How did Cc1ccc(NC(=O)CS(=O)CC(=O)NCC2OCCc3ccccc32)c(C)c1 (stereo not given) do in these assays?
Rango complex inh: 5.0%; Rango dissoc inh: 19.5%; GLA inh pH 4.5: 4.6; miR-21 reporter: 0.1%

How did CC(C)OC(=O)c1c(NC(=O)CCC(=O)O)sc2c1CCCCC2 do in these assays?
Rango complex inh: -1.1%; Rango dissoc inh: -18.6%; GLA inh pH 4.5: 8.5; miR-21 reporter: -15.4%

How did COc1ccc(C(=O)Nc2ccc(O)c3c(=O)cc(-c4cccc(Cl)c4)oc23)cc1 do in these assays?
Rango complex inh: -1.8%; Rango dissoc inh: 22.6%; GLA inh pH 4.5: 2.1; miR-21 reporter: -3.0%

Bioassay records deposited in PubChem BioAssay by National Center for Advancing Translational Sciences (NCATS).
